Compound activity from PubChem BioAssay.
RecA splice inh: inhibitors of M. tuberculosis RecA intein splicing. 290,000 tested, 0.75% active. P9WHJ3. inhibition, %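 (about 9 µM by stock and volumes)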. AID 2221. cell-free RecA intein splicing, fluorescence; in the data active means inhibition above about 30%; inconclusive means no clear call, values can overlap the other calls;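 further: 0% = vehicle wells and 100% = reference inhibitor control wells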
Target sequence (P9WHJ3 whole entry, looked up, canonical isoform): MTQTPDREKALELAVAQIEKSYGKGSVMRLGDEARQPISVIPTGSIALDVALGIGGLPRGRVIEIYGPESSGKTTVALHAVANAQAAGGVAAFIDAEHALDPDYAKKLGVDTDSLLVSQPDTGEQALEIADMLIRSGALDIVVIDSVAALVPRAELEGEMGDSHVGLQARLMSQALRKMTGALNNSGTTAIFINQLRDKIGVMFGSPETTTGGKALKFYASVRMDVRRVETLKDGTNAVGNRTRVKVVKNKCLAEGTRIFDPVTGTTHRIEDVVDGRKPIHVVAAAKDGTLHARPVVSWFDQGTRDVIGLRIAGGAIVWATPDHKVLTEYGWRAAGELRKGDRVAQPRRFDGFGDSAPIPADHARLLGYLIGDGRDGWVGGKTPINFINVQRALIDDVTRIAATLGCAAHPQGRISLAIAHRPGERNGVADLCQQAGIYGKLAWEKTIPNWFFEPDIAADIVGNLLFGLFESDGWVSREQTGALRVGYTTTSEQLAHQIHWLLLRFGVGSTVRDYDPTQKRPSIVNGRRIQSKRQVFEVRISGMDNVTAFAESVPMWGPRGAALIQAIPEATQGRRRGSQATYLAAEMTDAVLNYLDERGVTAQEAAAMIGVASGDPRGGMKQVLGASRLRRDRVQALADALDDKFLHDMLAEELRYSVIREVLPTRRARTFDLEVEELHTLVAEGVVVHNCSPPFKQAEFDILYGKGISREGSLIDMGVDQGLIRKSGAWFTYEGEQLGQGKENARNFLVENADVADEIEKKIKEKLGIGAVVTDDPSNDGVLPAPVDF
Mtb bLac sens: beta-lactam sensitization of Mtb H37Rv; M. tuberculosis H37Rv growth with meropenem, percent inhibition; hits of this screen are not shown here; inhibition, % at 25 µM; 330,000 tested, 0.27% active;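 active means about 74% or more and at least 40 points above the plate without the antibiotic, then above 30% in a dose series; inconclusive means first-round hits that could not be retested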;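 further: growth measured after seven days incubation then overnight dye step; 0% = bacteria only wells and 100% = bacteria with antibiotic; twin plates without the antibiotic show which effects depend on it; some results filed as inactive read as strong as hits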
Mtb growth: M. tuberculosis H37Rv growth inhibitors, H37Rv strain (AID 1626) | M. tuberculosis H37Rv growth inhibition; higher % means a stronger effect | inhibition, % at 10 µM; hits with a dose series show IC50 in µM | 220,000 tested, 0.95% active;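 active means confirmed in a dose series; inconclusive means inhibition above 80% but not taken into the dose series; inactive means below 80% or under 30% at every dose of the series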;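 further: bacteria incubated seven days before Alamar blue readout; 0% = bacteria only wells and 100% = bacteria with antibiotic wells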
Arbovirus inh: antivirals against arbovirus infection; 200,000 tested, 0.37% active; arbovirus infection cell-based antiviral screen; inhibition, % at 10 µM; AID 1251;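 active means inhibition from about 30%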;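 further: bluetongue infection of BSR cells; cell survival read as ATP light after 72 h; 0% = infected wells without compound and 100% = uninfected wells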
YopH PTP inh: blocks Yersinia enterocolitica YopH tyrosine phosphatase; 140,000 tested, 0.16% active; AID 898; fluorescence Ex485/Em525; inhibition, %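 (about 10 µM by stock and volumes)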;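 active means inhibition of 50% or more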;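 further: controls were vehicle for no effect and minimum signal wells for full effect; inactives centre near -20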
Arbovirus inh repeat: recorded beside Arbovirus inh, whose call it bears; inhibition, %; measured here: 10K subset replicate screen; many hits read low in the repeat;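 first of two repeat runs on a subset; 0% = infected and 100% = uninfected wells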
The depositor's hits bear a star; ? = inconclusive; / = not tested or not shown. Some of the compounds tested; the hit share may differ from the screen's.

SMILES | RecA splice inh | Mtb bLac sens | Mtb growth | Arbovirus inh | YopH PTP inh | others
O=C(c1cnn2c(C(F)(F)F)cc(-c3ccccc3)nc12)N1CCC2(CC1)OCCO2 | 1.3 | / | -11% | 12 | -1
CN(Cc1ccccc1)C(=O)CCSc1nc(-c2ccc3c(c2)OCO3)cc(C(F)(F)F)n1 | 1.8 | -1 | -3% | 16 | -30
COCCN(C(=O)COC(=O)c1cccc2ccccc12)c1c(N)n(Cc2ccccc2)c(=O)[nH]c1=O | 0.2 | -8 | / | / | /
Cc1cc(N2CCOCC2)nc2ccc(NC(=S)NCCC(C)C)cc12 | -2.1 | 31 | / | / | /
COc1cccc(OC)c1C(=O)Nc1ccc(S(=O)(=O)Nc2cc(C)nc(C)n2)cc1 | 2.2 | 1 | -10% | 10 | -35
CC(=O)NC1=NN(C(C)=O)C(C)(c2ccc(Br)cc2)S1 (centres undefined) | -0.2 | -2 | 4% | -3 | /
CN1C(=O)C(C)(C)c2cc(S(=O)(=O)N3CCC(C(=O)Nc4ccc(Cl)cc4)CC3)ccc21 | -0.6 | 3 | / | / | /
COc1ccc(CNc2nc3ccccc3n2CCN2CCOCC2)cc1 | 1.5 | -3 | -19% | 1 | -19
Clc1ccc(SCCCCN2CCNCC2)cc1 | 2.7 | 7 | 4% | 1 | -23
Cc1cccc(N2CCN(c3ccc(N4C(=O)CCCC4=O)cc3[N+](=O)[O-])CC2C)c1 (centres undefined) | -3.8 | -4 | 5% | 15 | -25
CC(=O)Nc1nc(C)c(-c2csc(Nc3cccc(C(C)=O)c3)n2)s1 | 6.4 | 33 | / | / | /
CCN(CC)CCCNC(=O)Cn1cc2c(n1)CCC(C)C2 (centres undefined) | 4.0 | -6 | -3% | 4 | -15 | Arbovirus inh repeat=1
O=C(Nc1ccc(-c2nc3ccccc3[nH]2)cc1)c1ccc(N2C(=O)CCC2=O)cc1 | -9.7 | 2 | -3% | 1 | -9
Cc1ccc(-c2nnc(N(C)C(=O)C3CCCO3)s2)cn1 (centres undefined) | 1.1 | -5 | 6% | 14 | -27
CC(=O)c1ccc(NC(=O)CSc2nnc(-c3ccncc3)o2)cc1 | -0.3 | -5 | / | / | /
CCn1c(C)cc(=O)cc1-c1ccc(Cl)cc1 | -1.2 | -6 | / | / | /
O=C(Cn1ccccc1=O)NCc1ccc(F)cc1 | 1.2 | -6 | / | / | /
COc1cccc(C(=O)NNC(=O)c2ccc3ccccc3c2O)c1 | 5.1 | 4 | / | / | /
CCOC(=O)N1CCN(C(=O)c2nc3ccccc3s2)CC1 | 0.4 | -7 | -4% | 11 | -27
CC(C)(C)OC(=O)N1CCC(CNC(=O)c2cccs2)CC1 | 1.2 | -4 | -1% | / | /
Cc1cccc(C(=O)Nc2nc3ccc(S(C)(=O)=O)cc3s2)c1 | -0.2 | 3 | / | / | /
O=C(CSCc1c(Cl)cccc1Cl)Nc1ccccc1-c1ccccc1 | 18 | -7 | -5% | -6 | -26
C#CC[N+]1(CC#Cc2ccc(C#CC[N+]3(CC#C)CCOCC3)cc2)CCOCC1 | 2.5 | -7 | / | 4 | 10
CC(C)(C)[C@H]1C=C(C(=O)NCc2ccccc2)O[C@@H](OCc2ccc(CO)cc2)C1 | 8.2 | 1 | 5% | 0 | /
CC(C)(C)N(Cc1ccccc1)C(=O)COC(=O)c1ccccc1SCC(=O)N1CCCC1 | 3.4 | -7 | / | / | /

Next section; it opens with the 2 that closed the last part.
SMILES | RecA splice inh | Mtb bLac sens | Mtb growth | Arbovirus inh | YopH PTP inh | others
CC(C)(C)[C@H]1C=C(C(=O)NCc2ccccc2)O[C@@H](OCc2ccc(CO)cc2)C1 | 8.2 | 1 | 5% | 0 | /
CC(C)(C)N(Cc1ccccc1)C(=O)COC(=O)c1ccccc1SCC(=O)N1CCCC1 | 3.4 | -7 | / | / | /
O=C(CCC1CCCN(C(=O)CC2=CCCCC2)C1)N1CCN(c2ccccn2)CC1 (centres undefined) | 1.6 | -12 | 9% | -4 | /
CCc1ccc(NC(=O)Nc2cccs2)cc1 | 3.0 | -3 | 7% | 9 | -1
CC1CN=C(Nc2ccc(F)c(Cl)c2)S1 (centres undefined) | 1.8 | -8 | 10% | / | /
Cc1ccc(NNC(=O)CCc2ccccc2)c(C)c1 | 0.5 | 92 | 20% | / | /
Cc1c(C(=O)N/N=C/c2ccc(N3CCOCC3)cc2)nc2ccccn12 | / | -4 | 3% | 5 | /
O=C(CN(Cc1ccccc1Cl)C(=O)c1csnn1)NCc1ccc2c(c1)OCO2 | 0.8 | -10 | / | / | /
C=CCSc1nnc(-c2ccccc2NC(C)=O)c(=O)[nH]1 | -2.8 | -6 | -7% | -3 | -28
COc1ccc(S(=O)(=O)Cc2ccc(C(=O)NC3CCC(C)CC3)o2)cc1 (centres undefined) | -0.3 | 4 | / | / | /
CCOc1cccc(-c2csc(C3COc4ccccc4O3)n2)c1 (centres undefined) | -4.2 | -2 | 7% | 4 | -22
Cc1ccc(C(=O)Nc2nn(C)c3cccc(F)c23)cc1 | 0.5 | -1 | 3% | / | /
COc1ccccc1CCNC(=O)C(=O)NCC1OCCN1S(=O)(=O)c1ccc2c(c1)OCCO2 (centres undefined) | 1.8 | -7 | / | / | /
Cc1ccc(S(=O)(=O)N2CCN(C(=O)CSc3nnnn3C)C2)cc1 | -0.6 | -8 | -9% | 11 | -9
CC(=O)Nc1ccc(S(=O)(=O)Nc2ccccn2)cc1 | 0.3 | 4 | -8% | 4 | /
CCOC(=O)N(C)c1ccc(C(O)(C(=O)OCC)C(F)(F)F)cc1 (centres undefined) | -1.6 | 14 | 0% | 9 | 16
O=C(CSC(=S)N1CCCC1)Nc1cc2c(cc1Br)OCCO2 | 0.2 | 5 | / | / | /
Cc1cc(C)cc(Nc2nc3c(S(=O)(=O)c4ccccc4)nnn3c3ccccc23)c1 | / | 3 | 3% | 11 | -33
COc1ccc(-c2csc3nc(-c4ccccc4)oc(=O)c23)cc1OC | 0.9 | 5 | 5% | -3 | /
Cc1ccc(NS(=O)(=O)c2ccc(CCC(=O)NCc3ccccn3)cc2)cc1 | -0.2 | 2 | 5% | 3 | /
CCN(CC(=O)Nc1c(F)cccc1F)C(=O)CCCOc1ccc(OC)cc1 | 1.1 | -4 | / | / | /
COc1ccccc1C(c1nnnn1CC1CCCO1)N1CCC(C(N)=O)CC1 (centres undefined) | 3.3 | -6 | -16% | -2 | -19
Cn1nc(-c2ccc(Cl)cc2)c2cc(C(=O)N3CCN(c4ccccc4)CC3)sc21 | 5.2 | -15 | 8% | 14 | -39 | Arbovirus inh repeat=15
CCc1nnc(NC(=O)CN2C(=O)/C(=C/c3ccc(OC)c(OC)c3)SC2=S)s1 | 1.0 | -14 | 1% | 10 | /
O=C(NCCCN1CCOCC1)c1ccc(Sc2ccccc2Cl)c([N+](=O)[O-])c1 | -0.8 | 2 | 7% | -7 | -18
COc1ccc(/C=C(\C#N)C(=O)NCc2cccs2)cc1OC | -2.0 | 0 | 9% | 12 | -20
CCCSc1nnc(-c2c[nH]c3ccccc23)n1CC | 0.2 | 1 | 12% | -7 | /

Entries above with two or more sulfur atoms, in the order listed:
SMILES | RecA splice inh | Mtb bLac sens | Mtb growth | Arbovirus inh | YopH PTP inh | others
CC(=O)Nc1nc(C)c(-c2csc(Nc3cccc(C(C)=O)c3)n2)s1 | 6.4 | 33 | / | / | /
Cc1cccc(C(=O)Nc2nc3ccc(S(C)(=O)=O)cc3s2)c1 | -0.2 | 3 | / | / | /
Cc1ccc(S(=O)(=O)N2CCN(C(=O)CSc3nnnn3C)C2)cc1 | -0.6 | -8 | -9% | 11 | -9
O=C(CSC(=S)N1CCCC1)Nc1cc2c(cc1Br)OCCO2 | 0.2 | 5 | / | / | /
CCc1nnc(NC(=O)CN2C(=O)/C(=C/c3ccc(OC)c(OC)c3)SC2=S)s1 | 1.0 | -14 | 1% | 10 | /

Following part:
SMILES | RecA splice inh | Mtb bLac sens | Mtb growth | Arbovirus inh | YopH PTP inh | others
FC(F)(F)c1nc(NCc2ccccc2)c2nnn(Cc3ccccc3)c2n1 | -0.4 | 6 | / | / | /
COc1ccccc1NC(=O)CN1CCN(c2ccccn2)CC1 | -0.9 | -8 | 36% | 4 | -40
O=C(Nc1ccc(-n2cccn2)cc1)C1CCN(Cc2ccsc2)CC1 | -1.1 | -22 | / | / | /
COc1ccc(/C=N/N2C(=O)CSC2=S)cc1Br | -0.1 | -15 | / | / | /
Cc1cccc(C)c1N1CCN(S(=O)(=O)N(C)C)CC1 | 9.6 | -1 | 6% | 4 | /
O=C(O)c1ccccc1O | -2.5 | -3 | -5% | 3 | -30
Cc1cccc(/C=N\NC(=O)c2csnn2)c1 | 2.7 | / | -6% | -2 | -34
CC(=O)Nc1ccc(S(=O)(=O)n2nc(C)cc2C)cc1 | -0.3 | -4 | -3% | 3 | 12
COc1ccc(NC(=S)NCC(O)c2ccccc2)c(OC)c1 (centres undefined) | -2.0 | -5 | 0% | 9 | -24
Cc1ccc(/C=C2\SC(=S)N(CCC(=O)N3CCOCC3)C2=O)cc1 | -7.2 | 9 | / | / | /
Cc1ccc(NS(=O)(=O)c2cccc(C(=O)NN3CCOCC3)c2)cc1 | -1.2 | -4 | 2% | 2 | /
CN(C)S(=O)(=O)c1ccc(N=Cc2c(C(F)(F)F)[nH]n(C)c2=O)cc1 | -2.6 | 2 | 2% | 4 | /
COc1ccccc1NC(=O)Cc1noc(CN(C)Cc2cccs2)n1 | -0.7 | -7 | -8% | 3 | -44
COc1ccc(C(=O)COC(=O)CNC(=O)c2ccc(OC)cc2)cc1 | -0.9 | 4 | 5% | 3 | /
CCOC(=O)N1CCC(NC(=O)CCC(=O)N2CCOc3ccc(C)cc32)CC1 | -0.5 | -5 | -3% | 0 | -15
Cn1c(=O)cc(OCCCC(=O)NCCN2CCN(c3ccccc3F)CC2)c2ccccc21 | 0.0 | -3 | 2% | -10 | -25
COc1ccc(Nc2oc(-c3ccc(OC)cc3)nc2C#N)cc1 | -3.1 | -10 | 6% | / | /
COc1ccc(C(=O)NCCS(=O)(=O)NC2CCCC2)cc1 | -2.6 | -9 | / | / | /
CCOC(=O)c1c(C)[nH]c(C(=O)COC(=O)c2ccc(F)c(S(=O)(=O)N3CCOCC3)c2)c1C | 2.2 | -10 | 3% | 2 | 21
CCCc1nc(NCc2ccccc2)c(C#N)c2c1CCCC2 | -4.0 | 5 | 2% | -5 | -20
CCCCNC(=O)C(CC)Sc1nc2sc(C(=O)OC)c(C)c2c(=O)n1N (centres undefined) | 0.3 | -1 | 13% | -7 | -18
c1ccc(Nc2ccccc2)cc1 | -0.7 | -1 | / | / | /
COC(=O)CSc1nc2ccc(NC(=O)CSc3nnnn3Cc3ccccc3)cc2s1 | -1.0 | -12 | 7% | 2 | 3 | Arbovirus inh repeat=4
O=C(OCCN1C(=O)c2cccc3c(N4CCOCC4)ccc(c23)C1=O)c1cc(Cl)cc(Cl)c1 | / | / | 14% | -12 | -11
COc1ccccc1OCC(=O)Nc1cccc(S(=O)(=O)NC2=NCCCCC2)c1 | 2.3 | -13 | / | / | /
Continued:
SMILES | RecA splice inh | Mtb bLac sens | Mtb growth | Arbovirus inh | YopH PTP inh | others
CC1(C(=O)CSc2ncn[nH]2)CCC(=O)O1 (centres undefined) | -1.5 | 9 | -4% | 6 | -18
COc1ccc(/C=C2\SC(=O)N=C2N)cc1OC | 0.1 | -4 | 4% | 2 | -19
O=C(O)CCCC(=O)N1CCC(C(O)(c2ccccc2)c2ccccc2)CC1 | -11 | -8 | -6% | 1 | /
Nc1nc(NCCc2ccccc2)nc(NCc2ccccc2)c1[N+](=O)[O-] | -0.1 | ? | / | / | /
CC1(C)Cc2cccc(OCC(=O)Nc3ccc(OCC(N)=O)cc3)c2O1 | -0.3 | 0 | 8% | 18 | /
COc1ccc(NS(=O)(=O)c2cc(N/C(=N\S(=O)(=O)c3ccccc3)c3ccc(F)cc3)ccc2Cl)cc1 | 12 | 4 | 2% | -12 | -41
CC(=O)NN1C(=O)c2ccc(Oc3cccc([N+](=O)[O-])c3)cc2C1=O | 2.1 | -3 | -1% | 1 | -35
CN1CCN(C2CCN(c3cccc(Cl)c3)CC2)CC1CCO (centres undefined) | 1.9 | 4 | / | / | /
O=C(CCl)Nc1ccc(N2CCCCCC2)cc1 | 48* | 97 | 72% | -42 | /
O=C(COc1cccnc1[N+](=O)[O-])Nc1ccc(Cl)c(S(=O)(=O)N2CCOCC2)c1 | 0.8 | -7 | -2% | / | /
CN(CC(=O)Nc1c(Cl)cccc1Cl)C(=O)CCCN1C(=O)c2ccccc2C1=O | 1.7 | 3 | -6% | -17 | -3
CCOc1cc(NS(=O)(=O)c2ccc(NC(C)=O)cc2)c(OCC)cc1NC(=O)C(C)C | 1.0 | 8 | -1% | -9 | 2
CCOC(=O)COc1coc(CN2CCN(c3ccccc3)CC2)cc1=O | -1.7 | 31 | / | / | /
